Assay outcomes from PubChem.
E coli growth: E. coli growth inhibition. Escherichia coli growth, OD600, 23 h; stronger effect = lower value. OD600 absorbance (no concentration beside the values). hit rate 0.21% among 330,000. AID 1053175;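 active means OD600 absorbance below the run mean of sample wells minus 3.6 SD, in any replicate, cut at about 0.56 in these data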;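 further: stock transfer was 300 nL into about 60 µL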
FGF22 binding: shifts melting point of recombinant human FGF22; AID 651658; recombinant FGF22 thermal shift, SYPRO orange fluorescence; percent of sucrose octasulfate shift, DMSO zero; Q9HCT0; calls only at 9.99 µM; hit rate 1.5% among 340,000;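 active means melting point raised past a set limit in the mean and every replicate; inconclusive means no clear call; three in four hits are not shown here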
ALR H2O2 inh: blocks human ALR sulfhydryl oxidase activity; inhibition, % (concentration not given with the values); purified ALR, DTT oxidation, H2O2 HRP-luminol luminescence; AID 485317; hit rate 3.8% among 290,000;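 active means mean and each replicate at 75% or more; inconclusive means only one of the two met; inactive means neither met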;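 further: stock transfer was 7.5 nL into about 7.5 µL; 0% = neutral wells and 100% = wells with inactivated enzyme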
LANA-H2B inh: blocks KSHV LANA binding to histone H2A/H2B | Q9QR71 | hit rate 0.6% among 320,000 | inhibition, % (no concentration beside the values) | cell-free LANA-H2A/H2B peptide, fluorescence polarization; in the data active means inhibition mostly above about 10%, no sharp cut-off; inactive means mostly below about 6.7%;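 further: stock transfer was 7.5 nL into about 10 µL; 0% = median of vehicle wells and 100% = median of positive control wells; one replicate is shown; the record names a cut of 25% in any replicate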
Target sequence (Q9QR71 whole entry, looked up): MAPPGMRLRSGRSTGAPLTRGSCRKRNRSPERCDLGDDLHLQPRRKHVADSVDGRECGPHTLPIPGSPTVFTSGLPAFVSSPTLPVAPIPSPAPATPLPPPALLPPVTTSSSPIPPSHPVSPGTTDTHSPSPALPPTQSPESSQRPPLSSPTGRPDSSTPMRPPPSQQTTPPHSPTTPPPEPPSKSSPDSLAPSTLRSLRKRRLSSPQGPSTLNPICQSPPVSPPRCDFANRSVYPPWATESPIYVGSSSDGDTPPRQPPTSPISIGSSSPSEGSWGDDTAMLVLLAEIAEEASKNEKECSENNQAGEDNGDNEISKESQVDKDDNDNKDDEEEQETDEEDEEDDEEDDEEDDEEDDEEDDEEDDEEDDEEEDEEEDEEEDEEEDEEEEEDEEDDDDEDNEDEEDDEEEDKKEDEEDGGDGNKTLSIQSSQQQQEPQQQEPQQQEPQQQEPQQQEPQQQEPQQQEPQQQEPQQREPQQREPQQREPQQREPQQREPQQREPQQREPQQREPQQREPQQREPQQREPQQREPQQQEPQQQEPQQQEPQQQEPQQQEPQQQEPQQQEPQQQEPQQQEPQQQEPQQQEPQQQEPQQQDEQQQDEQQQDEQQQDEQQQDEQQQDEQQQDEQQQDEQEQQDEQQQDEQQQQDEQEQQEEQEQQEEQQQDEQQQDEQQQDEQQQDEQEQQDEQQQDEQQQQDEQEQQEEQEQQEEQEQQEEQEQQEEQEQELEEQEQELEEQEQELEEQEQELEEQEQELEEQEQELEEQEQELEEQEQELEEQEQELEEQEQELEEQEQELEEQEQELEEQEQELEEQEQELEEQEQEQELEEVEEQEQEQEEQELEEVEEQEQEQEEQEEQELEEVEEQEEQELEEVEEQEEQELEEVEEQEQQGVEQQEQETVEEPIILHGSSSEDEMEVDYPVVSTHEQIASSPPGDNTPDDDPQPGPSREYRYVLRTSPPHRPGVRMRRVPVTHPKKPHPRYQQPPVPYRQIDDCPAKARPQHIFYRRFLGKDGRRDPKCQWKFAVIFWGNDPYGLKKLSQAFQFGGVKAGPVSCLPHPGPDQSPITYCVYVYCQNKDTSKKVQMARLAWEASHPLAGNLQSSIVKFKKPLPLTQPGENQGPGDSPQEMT
HNF4A DNA FP: change in binding of human HNF4 alpha to DNA; P41235; HNF4a-FITC DNA binding, fluorescence polarization, 1 h; activity change, % at 10 µM; hit rate 0.3% among 360,000; AID 1224865; in the data active means activity change above about 30%, passing the limit was not always enough;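 further: controls were the assay level and a saturating level of protein; the project sought stronger binding though the title names inhibitors; some compounds called inactive have numbers as strong as hits; positive values seem to mean higher polarization but the record does not say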
B2AR ag: human beta-2 adrenergic receptor agonism by FAP | P07550 | Am2.2-beta2AR cells, FAP receptor internalization, flow cytometry; reference of the scale not given here | response, % (test concentration not listed) | hit rate 0.43% among 340,000 | AID 504454;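 active means response above a set limit, near 3 SD of response in nonfluorescent compounds, cut at about 42% in these data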;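 further: stock transfer was 100 nL into about 11 µL; a reference agonist was the positive control; negative values mostly stem from fluorescent compounds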
UCH37 inh: blocks the human deubiquitinase UCH37; purified proteasome/UCH37, Ub-AMC cleavage fluorescence; inhibition, % (test concentration not listed); hit rate 0.33% among 330,000;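 active means mean of two replicates above 20%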;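 further: 0% = compound-free wells with enzyme and 100% = wells lacking proteasome; stock transfer was 100 nL into about 20 µL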
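Material: human UCH37 enzyme supplied as purified proteasome complex / Amount: 0.15 nM proteasome as dispensed / Buffer or medium: pH 7.4 Tris-HCl (50 mM) with ovalbumin, ATP-MgCl2, DTT / Times: preincubation 30 min, reaction 25 min, room temperature / Technique: AMC fluorescence from Ub-AMC cleavage, excitation 355 nm, emission 460 nm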
The depositor's hits bear a star; i = inactive; ? = inconclusive; . = not tested or not shown. This is a subset. The share of hits here may be higher or lower than overall.

canonical_smiles	E coli growth	FGF22 binding	ALR H2O2 inh	LANA-H2B inh	HNF4A DNA FP	B2AR ag	UCH37 inh
COc1cc(OC)cc(-c2nc(-c3ccc(Br)cc3)no2)c1	0.72	.	-3	-2.4	-1.2	4	6.0
CCN1C(=O)N[C@@H](c2cccc(C(F)(F)F)c2)C(C(C)=O)=C1C	.	i	-9	-0.9	1.3	0	-0.3
COC(=O)c1ccc(CN2CCC(Oc3cccc(C(=O)N4CCCC4)c3)CC2)cc1	0.65	i	.	1.2	-0.8	8	1.6
Cc1nc(CSc2ccc(Br)cc2)cs1	0.63	i	-12	-7.5	0.5	-7	0.7
CCOC(=O)N1CCN(c2c(Nc3cc(C)[nH]n3)c(=O)c2=O)CC1	0.71	i	?	-3.1	-3.9	8	6.1
COc1ccc(-c2[nH]ncc2/C=N/NC(=O)c2ccncc2)c(OC)c1	.	i	-18	-3.7	4.4	-5	.
CN(c1ccc(OCC(=O)Nc2ccccc2C(=O)O)cc1)S(=O)(=O)c1ccc(Cl)cc1	0.69	.	63	6.1	-0.2	6	6.5
O=C(CC1SC(N2CCCCC2)=NC1=O)Nc1cccc(C(F)(F)F)c1 (stereo unspecified)	0.73	.	-5	-1.2	-1.1	0	2.5

The list continues.
canonical_smiles	E coli growth	FGF22 binding	ALR H2O2 inh	LANA-H2B inh	HNF4A DNA FP	B2AR ag	UCH37 inh
O=C(COC(=O)/C=C/c1ccc(Br)o1)Nc1ccc2[nH]c(=O)[nH]c2c1	.	i	-8	-7.0	-46	-1	.
O=C(N/N=C/c1ccc(Br)cc1)c1ccc(F)cc1	.	.	9	-0.2	1.3	1	.
Cc1cccc(C2=NN(c3ccccc3)[C@@H](C(=O)N3CCOC3=O)[C@@H]2c2ccc(Cl)cc2)c1	0.71	i	.	.	3.2	11	-237
CCCCN(C(=O)c1cccc(-c2ccc(OC(C)=O)cc2)c1)c1c(N)n(CCC)c(=O)[nH]c1=O	0.63	i	9	1.8	5.1	9	0.8
CCN1CCN(C(=O)c2ccc(CN(c3ccc(C)c(C)c3)S(C)(=O)=O)cc2)CC1	0.66	i	-4	-9.0	0.7	5	2.9
Cn1cc(C(=O)N/N=C/c2c(O)ccc3ccccc23)ccc1=O	.	i	-24	7.0	21	5	.
O=C(NCc1ccccn1)c1nnc(Cc2ccc(Cl)cc2)o1	0.74	i	.	1.6	2.1	-2	6.2
O=C(CN1C(=O)CCSc2ccc(S(=O)(=O)N3CCCC3)cc21)NCc1ccccc1Cl	0.67	i	-4	0.0	-4.2	21	0.8

(next part)
canonical_smiles	E coli growth	FGF22 binding	ALR H2O2 inh	LANA-H2B inh	HNF4A DNA FP	B2AR ag	UCH37 inh
COc1ccc(NC(=O)N(C)C[C@H]2Oc3c(NC(=O)Nc4ccc5c(c4)OCO5)cccc3C(=O)N([C@H](C)CO)C[C@@H]2C)cc1	.	i	2	2.2	1.1	10	5.4
COc1ccc(NC(=O)C(c2ccccc2)N2CCN(c3ccccn3)CC2)cc1Cl (stereo unspecified)	0.68	i	-4	0.9	-2.5	-3	0.1
Oc1ccc(-c2nccc(-c3ccc(F)cc3)n2)cc1	0.67	i	-1	0.4	-0.3	-11	2.5
COCCCNC(=S)N1CCCC(c2nc3cc(C)c(C)cc3[nH]2)C1 (stereo unspecified)	0.68	.	-89	-4.5	0.4	3	5.1
Cc1ccc(N2CCC(N3CCN(C)C(CCO)C3)CC2)cc1 (stereo unspecified)	0.7	i	99*	-8.2	1.5	4	1.8
COc1ccc([C@H]2/C=C\CN(Cc3ccc(N(C)C)cc3)[C@@H](C)C(=O)N2Cc2ccc(F)cc2)cc1	.	i	98*	1.0	-2.1	113*	4.4
O=C(Cc1ccccc1)N1CCCC1c1ccccc1 (stereo unspecified)	0.68	.	-4	-0.4	3.9	35	3.4
CCOC(=O)/C(C#N)=C/c1c(N2CCN(c3ccccc3)CC2)nc2c(C)cccn2c1=O	0.7	i	-4	3.2	0.8	9	3.0

New compounds follow
canonical_smiles	E coli growth	FGF22 binding	ALR H2O2 inh	LANA-H2B inh	HNF4A DNA FP	B2AR ag	UCH37 inh
CCCCNCC(O)(c1ccc(Cl)cc1)c1ccc(Cl)cc1	0.65	i	-6	3.3	-1.3	16	7.0
COc1ccc(C(=O)/C=C/c2ccc(OC(=O)c3cc(OC)c(OC)c(OC)c3)cc2)cc1	0.7	i	-2	-14	0.3	21	4.4
COc1ccc(-c2ccc(OC)c(OC)c2OC)c(OC)c1OC	0.73	i	.	.	1.9	4	0.6
CN1CCCN(C(=O)CSc2ccccc2)CC1	0.68	.	-7	-0.3	-0.5	-8	-1.8
O=C(c1ccc(-c2ccccc2Cl)o1)N1CCCC(C(F)(F)F)C1 (stereo unspecified)	0.67	i	.	1.6	4.2	-6	1.1
CC(C)=CCCC(C)NC(=O)NC1CCCCC1 (stereo unspecified)	0.69	.	55	0.1	0.2	-5	21*
CN1Cc2c(N3CCOCC3)nc3sc(C#N)c(N)c3c2CC1(C)C	0.67	i	-10	-0.5	2.9	3	-327
CN1CCN(NC(=O)c2cccc(C(F)(F)F)c2)CC1	0.68	i	36	-5.9	-1.1	0	3.2

The list continues.
canonical_smiles	E coli growth	FGF22 binding	ALR H2O2 inh	LANA-H2B inh	HNF4A DNA FP	B2AR ag	UCH37 inh
CC(C)c1nc(SCC(=O)Nc2cccc(C(F)(F)F)c2)c2c(=O)n(C)c(=O)n(C)c2n1	0.74	i	-8	-4.2	-0.3	14	5.4
O=C(CSc1c[nH]c2ccccc12)NCC1CCCO1 (stereo unspecified)	0.71	i	56	-8.1	0.7	-1	0.9
COc1ccc(-c2nnc3n(CCc4ccccc4)c(=O)c4ccccc4n23)c(OC)c1	0.72	.	-6	0.5	-0.9	17	0.3
CC1(C)CC(=O)C2=C(C1)OC(c1ccc(O)cc1)C(C#N)=C2N (stereo unspecified)	0.7	i	1	-1.8	1.5	9	4.9
O=C(COc1ccc(Cl)cc1)Nc1cccc(S(=O)(=O)NC2=NCCCCC2)c1	0.61	i	-4	4.8	-0.5	-1	-1.5
O=c1c2ccccc2oc2cc(OCc3cccc(F)c3)cc(O)c12	0.63	i	-14	-2.6	-6.8	-8	-4.0
CCOC(=O)C1=C(c2ccccc2)NC(SCC(N)=O)=C(C#N)C1c1cccnc1 (stereo unspecified)	0.69	.	35	3.7	-5.9	10	1.8
CCOc1ccc(S(=O)(=O)N2CCN(c3ccc(OC)cc3)CC2)c2cccnc12	0.71	.	24	-2.3	1.2	-16	4.4

Two entries from above, reformatted.
Value order: E coli growth	FGF22 binding	ALR H2O2 inh	LANA-H2B inh	HNF4A DNA FP	B2AR ag	UCH37 inh
> CN1CCN(NC(=O)c2cccc(C(F)(F)F)c2)CC1
    0.68	i	36	-5.9	-1.1	0	3.2
> CC1(C)CC(=O)C2=C(C1)OC(c1ccc(O)cc1)C(C#N)=C2N (stereo unspecified)
    0.7	i	1	-1.8	1.5	9	4.9

Continued:
canonical_smiles	E coli growth	FGF22 binding	ALR H2O2 inh	LANA-H2B inh	HNF4A DNA FP	B2AR ag	UCH37 inh
O=C(CCn1c(=O)oc2ccccc21)Nc1ccc(N2CCOCC2)cc1	0.68	i	.	-7.2	-1.3	10	-1.0
CCS(=O)(=O)N1CCN(C(=O)c2ccccc2)CC1	0.68	.	-2	7.7	1.0	8	3.9
COc1ccc(C(=O)CCN2CCN(c3ccc(OC)cc3)CC2)cc1	0.65	i	50	-2.9	0.2	6	3.3
CSCC[C@H](NC(=O)N1C[C@H]2C[C@@H](C1)c1cccc(=O)n1C2)C(=O)Nc1ccc(NC(C)=O)cc1	0.8	i	.	1.6	2.3	4	2.5
COc1ccc2nc(Nc3nc(-c4ccncc4)cs3)sc2c1	.	i	8	4.0	6.3	15	.
CC(C)(C)NC(=O)c1cc(-c2ccc3c(c2)OCO3)nc2ccccc12	0.66	i	-2	1.1	-4.6	-7	-44
CN(C)CCC(=O)N1c2ccccc2Sc2ccc(C(F)(F)F)cc21	0.7	i	98*	-2.8	3.0	-5	3.5
CCc1ccccc1NC(=O)CC(c1ccc(OC)cc1)n1cccc1 (stereo unspecified)	0.68	i	-5	6.9	2.9	0	-1.2

New compounds follow.
canonical_smiles	E coli growth	FGF22 binding	ALR H2O2 inh	LANA-H2B inh	HNF4A DNA FP	B2AR ag	UCH37 inh
CCOc1ccc(N=Nc2c(N)[nH][nH]c2=O)cc1	0.68	i	99*	-8.5	0.4	-3	14
Cc1ccnc(N2CCC(C(=O)NNC(=O)c3ccccc3C)CC2)n1	0.73	i	-7	0.2	-2.7	-3	-11
CCOC(=O)c1c(C(F)(F)F)nc2ncccn12	0.69	.	6	-0.7	0.9	-7	-6.5
Oc1ccccc1C1SC(c2ccccc2O)SC(c2ccccc2O)S1 (stereo unspecified)	0.65	i	.	.	-0.4	11	8.1
COc1ccc(/C=N/OCC(=O)Nc2nc3ccccc3s2)cc1OC	.	.	-6	-0.5	6.1	9	.
COc1ccc(C(=O)N/C(=C\c2cccc3ccccc23)C(=O)NCCc2c[nH]c3ccccc23)cc1OC	0.71	.	-2	2.8	-0.2	-9	1.7
COc1ccc(CNC(=O)COC(=O)CO/N=C(\C)c2ccc3c(c2)OCO3)cc1	.	i	-4	-1.4	-2.3	-8	.
CC(C)(C)C(=O)Oc1cccc(Nc2ncnc3ccccc23)c1	0.69	i	7	3.2	2.0	1	-14

Of the compounds above, 2 contain a furan ring, fused or not.
canonical_smiles	E coli growth	FGF22 binding	ALR H2O2 inh	LANA-H2B inh	HNF4A DNA FP	B2AR ag	UCH37 inh
O=C(COC(=O)/C=C/c1ccc(Br)o1)Nc1ccc2[nH]c(=O)[nH]c2c1	.	i	-8	-7.0	-46	-1	.
O=C(c1ccc(-c2ccccc2Cl)o1)N1CCCC(C(F)(F)F)C1 (stereo unspecified)	0.67	i	.	1.6	4.2	-6	1.1

(next part)
canonical_smiles	E coli growth	FGF22 binding	ALR H2O2 inh	LANA-H2B inh	HNF4A DNA FP	B2AR ag	UCH37 inh
Cc1cc(C(=O)CSc2nc(N)cc(N)n2)c(C)n1-c1cccc(F)c1	0.68	i	24	-2.3	1.3	2	4.2
CCOC(=O)C1CCN(C(=O)Nc2ccc3c(c2)nc(C)n3C)CC1	0.65	.	-8	-5.2	3.6	-4	0.3
CC1Sc2ccc(S(=O)(=O)CCC(=O)N(C)Cc3ccccc3)cc2NC1=O (stereo unspecified)	0.69	i	-3	-2.0	2.4	-1	4.0
Cc1ccc(S(=O)(=O)NCC(=O)OC(C(=O)c2ccccc2)c2ccccc2)cc1 (stereo unspecified)	0.67	.	-23	-2.5	1.9	2	0.6
CN(C)/C=N/C(=S)Nc1ccccc1	.	i	2	-32	6.7	-4	.
CN(C(=O)c1ccccc1)C1c2c(ccc3ccccc23)OCC1CO (stereo unspecified)	0.66	i	1	2.3	6.7	-2	1.6
CCCC(=O)OCC1CN(Cc2ccco2)S(=O)(=O)c2c(F)cccc2O1 (stereo unspecified)	.	i	.	.	0.1	-3	.
ON=C(CCc1ccccc1)CCc1ccccc1	0.66	.	.	.	1.0	8	2.8
O=C(CSc1nnnn1-c1ccc(F)cc1)NCc1cccs1	0.71	i	-3	2.3	-1.5	0	1.5
COc1ccc(Nc2nc(N)nc(CSc3nnc(N)s3)n2)cc1	0.65	.	-1	-3.2	-0.2	0	1.4
